Screening data as filed in PubChem.
LANA-H2A inh: blockers of LANA interaction with H2A/H2B – biochemical, FP readout, HTS, primary screen; AID 2629, 2010; inhibition, % (test concentration not listed); 0.6% of 320,000 active; cell-free LANA-H2A/H2B peptide, fluorescence polarization; in the data active = inhibition mostly above about 10%, no sharp cut-off; inactive = mostly below about 6.7%;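 also: stock transfer was 7.5 nL into about 10 µL; 0% = median of vehicle wells and 100% = median of positive control wells; one replicate is shown; the record names a cut of 25% in any replicate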
HNF4A DNA FP: change in binding of human HNF4A to DNA, primary screen, biochemical, fluorescence polarization, FITC-DNA; 1 h; activity change, % at 10 µM; 0.3% of 360,000 active; in the data active = activity change above about 30%, passing the limit was not always enough;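 also: controls were the assay level and a saturating level of protein; the project sought stronger binding though the title names inhibitors; some compounds called inactive have numbers as strong as hits; positive values seem to mean higher polarization but the record does not say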
Target sequence (P41235 whole entry, looked up): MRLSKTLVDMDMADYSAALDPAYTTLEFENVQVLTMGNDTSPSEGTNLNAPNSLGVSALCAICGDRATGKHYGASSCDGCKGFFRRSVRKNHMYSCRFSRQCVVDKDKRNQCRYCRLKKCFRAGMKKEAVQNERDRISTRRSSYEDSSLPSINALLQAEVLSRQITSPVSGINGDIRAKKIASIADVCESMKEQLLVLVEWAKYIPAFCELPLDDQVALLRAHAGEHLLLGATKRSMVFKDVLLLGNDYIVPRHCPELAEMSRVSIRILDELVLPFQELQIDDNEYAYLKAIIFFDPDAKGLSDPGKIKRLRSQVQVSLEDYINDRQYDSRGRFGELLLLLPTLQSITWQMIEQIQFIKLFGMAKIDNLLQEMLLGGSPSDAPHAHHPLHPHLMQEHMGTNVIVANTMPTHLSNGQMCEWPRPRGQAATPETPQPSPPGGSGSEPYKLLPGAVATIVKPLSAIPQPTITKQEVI
ALR inh: inhibitors of human ALR sulfhydryl oxidase, primary screen, biochemical, H2O2 detection, HRP-luminol luminescence, single point; FAD-linked sulfhydryl oxidase ALR (Homo sapiens), P55789; purified ALR, DTT oxidation; inhibition, % (concentration not given with the values); 3.8% of 290,000 active; AID 485317, 2010;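 active = mean and each replicate at 75% or more; inconclusive = only one of the two met; inactive = neither met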;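 also: stock transfer was 7.5 nL into about 7.5 µL; 0% = neutral wells and 100% = wells with inactivated enzyme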
Target sequence (P55789 whole entry, looked up): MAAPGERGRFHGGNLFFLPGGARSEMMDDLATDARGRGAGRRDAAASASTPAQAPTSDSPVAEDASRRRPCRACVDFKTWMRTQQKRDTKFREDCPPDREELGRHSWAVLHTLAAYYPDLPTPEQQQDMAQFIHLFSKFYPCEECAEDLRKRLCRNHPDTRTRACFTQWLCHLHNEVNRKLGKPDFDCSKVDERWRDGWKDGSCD
Ecoli growth: E. coli growth inhibition, primary screen, OD600; Escherichia coli growth, 23 h; stronger effect = lower value; OD600 absorbance (concentration not given with the values); 0.21% of 330,000 active; AID 1053175, 2014;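 active = OD600 absorbance below the run mean of sample wells minus 3.6 SD, in any replicate, cut at about 0.56 in these data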;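 also: stock transfer was 300 nL into about 60 µL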
FGF22 binding: binders of human FGF22 protein, primary screen, FGF22 synaptogenesis inhibitor project, biophysical, thermal shift, single point; Fibroblast growth factor 22 (Homo sapiens), Q9HCT0; recombinant FGF22 thermal shift, SYPRO orange fluorescence; percent of sucrose octasulfate shift, DMSO zero; calls only at 9.99 µM; 1.5% of 340,000 active; AID 651658, 2012;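 active = melting point raised past a set limit in the mean and every replicate; inconclusive = no clear call; three in four hits are not shown here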
UCH37 DUB inh: inhibitors of human UCH37 deubiquitinase, primary screen, biochemical, Ub-AMC cleavage, fluorescence; Ubiquitin carboxyl-terminal hydrolase isozyme L5 (Homo sapiens), Q9Y5K5; purified proteasome/UCH37; inhibition, % (no concentration beside the values); 0.33% of 330,000 active; AID 588478, 2011;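 active = mean of two replicates above 20%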;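 also: 0% = compound-free wells with enzyme and 100% = wells lacking proteasome; stock transfer was 100 nL into about 20 µL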
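Assay system: Proteasome-bound UCH37. Buffer or medium: pH 7.4 Tris-HCl (50 mM) with ovalbumin, ATP-MgCl2, DTT. Incubation: 30 min preincubation with enzyme, 25 min cleavage at room temperature. Measured by: fluorescence, ex 355 nm, em 460 nm. Read-out basis: percent inhibition. Control set: wells without proteasome as full block, compound-free enzyme plus substrate as uninhibited.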
B2AR ag: beta2AR agonists driving receptor internalization, primary screen, cell-based, FAP fluorogen, flow cytometry | Beta-2 adrenergic receptor (Homo sapiens), P07550 | Am2.2-beta2AR cells; reference of the scale not given here | response, % (concentration not given with the values) | 0.43% of 340,000 active;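 active = response above a set limit, near 3 SD of response in nonfluorescent compounds, cut at about 42% in these data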;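 also: stock transfer was 100 nL into about 11 µL; a reference agonist was the positive control; negative values mostly stem from fluorescent compounds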
Target sequence (P07550 whole entry, looked up): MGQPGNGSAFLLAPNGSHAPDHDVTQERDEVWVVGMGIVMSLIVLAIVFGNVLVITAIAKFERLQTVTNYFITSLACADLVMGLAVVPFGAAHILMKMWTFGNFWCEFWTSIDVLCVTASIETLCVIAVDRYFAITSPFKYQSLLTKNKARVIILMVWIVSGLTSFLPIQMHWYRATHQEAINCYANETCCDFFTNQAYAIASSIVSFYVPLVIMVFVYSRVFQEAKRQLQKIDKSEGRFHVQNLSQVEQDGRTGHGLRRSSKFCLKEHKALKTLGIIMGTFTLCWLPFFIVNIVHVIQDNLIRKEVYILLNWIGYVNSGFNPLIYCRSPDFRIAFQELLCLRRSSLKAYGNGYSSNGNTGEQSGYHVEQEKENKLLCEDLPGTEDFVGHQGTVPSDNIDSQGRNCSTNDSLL
Active calls of the source: *; i = inactive; ? = inconclusive; / = no result given. The list is partial. The share of hits here may be higher or lower than overall.

Preview (6 entries):
SMILES	LANA-H2A inh	HNF4A DNA FP	ALR inh	Ecoli growth	FGF22 binding	UCH37 DUB inh	B2AR ag
CSCCC(NS(=O)(=O)c1ccc(Cl)cc1)C(=O)OCC(=O)c1ccc(F)cc1 (centres undefined)	-0.7	-0.5	-10	0.7	/	4.2	0
COc1ccc(NC(=O)COC(=O)CN2C(=O)c3ccccc3C2=O)cc1	/	-5.3	/	0.68	i	0.1	-3
CN(C(=O)COc1ccc(Oc2ccccc2)cc1)C1CCS(=O)(=O)C1 (centres undefined)	-3.3	-1.0	-8	/	i	/	-24
CC(=O)c1cc(CN2C(=O)c3ccccc3C2=O)cs1	2.6	-0.7	2	0.72	/	1.1	-5
CCc1ccc(-c2cnc3ccccc3n2)cc1NC(=O)CNC(=O)c1ccccc1	4.1	-0.7	-3	0.69	i	-1.4	-18
COC(=O)Cn1c(CN(C)Cc2ccccc2)nc2c1c(=O)n(C)c(=O)n2C	-6.3	-7.4	/	0.63	i	5.0	-2

Results, repeating the preview:
SMILES	LANA-H2A inh	HNF4A DNA FP	ALR inh	Ecoli growth	FGF22 binding	UCH37 DUB inh	B2AR ag
CSCCC(NS(=O)(=O)c1ccc(Cl)cc1)C(=O)OCC(=O)c1ccc(F)cc1 (centres undefined)	-0.7	-0.5	-10	0.7	/	4.2	0
COc1ccc(NC(=O)COC(=O)CN2C(=O)c3ccccc3C2=O)cc1	/	-5.3	/	0.68	i	0.1	-3
CN(C(=O)COc1ccc(Oc2ccccc2)cc1)C1CCS(=O)(=O)C1 (centres undefined)	-3.3	-1.0	-8	/	i	/	-24
CC(=O)c1cc(CN2C(=O)c3ccccc3C2=O)cs1	2.6	-0.7	2	0.72	/	1.1	-5
CCc1ccc(-c2cnc3ccccc3n2)cc1NC(=O)CNC(=O)c1ccccc1	4.1	-0.7	-3	0.69	i	-1.4	-18
COC(=O)Cn1c(CN(C)Cc2ccccc2)nc2c1c(=O)n(C)c(=O)n2C	-6.3	-7.4	/	0.63	i	5.0	-2
CC(C)c1ccc(NC(=O)CCNS(=O)(=O)c2cc(Br)cnc2N)cc1	-1.1	1.2	-17	0.7	i	1.3	-1
COc1cccc(NC(=S)N(CCCN2CCCC(C)C2)Cc2cccs2)c1 (centres undefined)	-0.4	-1.1	-3	0.72	i	0.6	8
CC1(NC(=O)CC(c2ccccc2)(c2ccccc2)c2ccccc2)CCN(Cc2ccc(-c3ccccc3)cc2)C1=O (centres undefined)	-3.6	-1.8	3	0.71	i	3.8	3
CC1=CC(C)(C)n2c(O)c(N=NC(N)=S)c3c(C)c(C)cc1c32	/	-3.6	/	0.74	i	7.4	-4
O=C(O)c1ccccc1S(=O)(=O)Cc1ccccc1	1.7	0.8	-5	0.65	/	0.3	2
CCn1c(SCC(=O)NC(=O)NCc2ccco2)nnc1-c1cccs1	0.1	-5.6	-6	0.72	/	0.2	-14
Cc1cc(C(=O)CSc2nc3ccccc3[nH]2)c(C)n1C	1.7	3.3	/	0.73	/	2.8	-6
O=C(CSc1nc2ccccc2n1S(=O)(=O)c1cccc([N+](=O)[O-])c1)NCCc1ccccc1	1.7	-5.5	/	0.64	i	2.5	-7
Cc1c(-c2cc(C(=O)O)c3ccccc3n2)cnn1C	0.0	-3.6	/	0.67	i	-345	-3
O=C(O)c1cccc(NS(=O)(=O)c2ccc3nnn(O)c3c2)c1	1.5	-3.9	-1	0.78	/	4.4	6
CCOc1cc(/C=N/NC(=O)C(=O)N/N=C/c2ccc(O)c(OCC)c2)ccc1O	-0.4	-4.0	12	/	i	/	4
O=C(N/N=C/c1ccc2c(c1)OCO2)c1ccc(NC(=O)c2ccc(F)cc2)cc1	0.3	1.9	-1	/	i	/	10
C/C(=N/NC(=O)c1ccccc1)C1=C(O)CC(C)(C)CC1=O	-4.1	0.9	?	/	i	/	-2
CCOC(=O)C1C2C=CC3(CN(c4ccc(Cl)c(F)c4)C(=O)C13)O2 (centres undefined)	-11	-2.4	2	0.75	i	1.1	7
CCn1c(=O)c(=O)[nH]c2cc(C(=O)N(C)Cc3ccc(OC)c(F)c3)ccc21	3.2	1.1	-9	0.67	i	-2.0	-4
COc1ccc(C2=NN(C(=O)CSc3nc(=O)n4cc(C)ccc4n3)C(c3ccc(C)cc3)C2)cc1 (centres undefined)	2.0	4.9	2	0.7	i	-28	8
Cc1c(C(=O)NCCCN2CCOCC2)oc2c1C1(CCC2)SCCS1	-6.5	3.6	51	0.69	/	-0.8	0
COc1ccccc1NC(=O)CN1CCN(CC(=O)Nc2ccccc2F)CC1	/	-6.6	/	0.7	i	2.1	-5
CSc1oc(-c2ccccc2)nc1C(N)=O	3.0	-1.3	-8	0.7	/	-1.5	2
COc1ccc(OC)c(C2C3=C(CCCC3=O)NC3=C2C(=O)CCC3)c1	-4.7	0.1	-36	0.71	/	3.2	0
O=C(O)c1nn(Cc2nc3ccccc3o2)c(=O)c2ccccc12	-0.5	-0.8	-34	0.68	i	4.7	-1
C/C(=N\NC(=O)C(N)=O)c1ccc(O)cc1O	1.4	2.4	66	/	i	/	-6
Cc1ccc(/C=N/NC(=O)c2c(-c3ccccc3)noc2C)o1	0.6	-2.7	-15	/	i	/	-1
Cc1ccc(-c2nc(CS(=O)CC(=O)NC3CCCC(C)C3C)c(C)o2)cc1 (centres undefined)	-4.9	-0.6	99*	0.65	i	1.5	3
O=C(Nc1ccccc1-c1ccccc1)c1ccco1	2.2	3.6	-9	0.69	/	0.7	0
O=S(=O)(Nc1nc2ccccc2nc1Cl)c1ccc(Cl)cc1	-3.0	-0.9	0	0.65	/	1.5	0
COc1ccc(-c2nc(C#N)c(NCCN(C)C)o2)cc1	1.4	-2.4	?	0.71	i	-84	-1
Cc1oc2cc3oc(=O)c(CCC(=O)NCCN4CCOCC4)c(C)c3cc2c1C	-6.1	3.9	/	0.7	i	-31	0
CCc1cccc(C)c1NC(=O)CO/N=C(\C)c1cc2ccccc2o1	-6.7	-1.6	0	/	/	/	9
O=C(CCC(=O)c1cccs1)NCc1ccccc1	-0.4	1.2	-5	0.69	/	5.2	-26
COC(CNC(=O)c1c[nH]c2ccc(S(=O)(=O)N3CCC4(CC3)OCCO4)cc2c1=O)OC	4.6	0.9	-7	0.67	/	-5.7	-6
COCCNC(=O)c1c(N)n(CCCn2ccnc2)c2nc3ccccc3nc12	-1.3	2.8	23	0.7	/	i	65*
COc1ccc(/C(N)=N/OC(=O)CC2CCCCC2)cc1	-4.8	0.7	4	/	i	/	3
CNC(=O)C(C)NS(=O)(=O)c1ccc(F)cc1 (centres undefined)	-1.2	1.4	-4	0.73	/	0.1	-1

Just B2AR ag and ALR inh, for 2 of the compounds above:
| mol | B2AR ag | ALR inh |
| --- | --- | --- |
| COc1ccc(/C(N)=N/OC(=O)CC2CCCCC2)cc1 | 3 | 4 |
| CNC(=O)C(C)NS(=O)(=O)c1ccc(F)cc1 (centres undefined) | -1 | -4 |

The listing continues:
SMILES	LANA-H2A inh	HNF4A DNA FP	ALR inh	Ecoli growth	FGF22 binding	UCH37 DUB inh	B2AR ag
CN(C)CCN(Cc1ccccc1)c1nccc(N(C)C)c1C#N	13	-0.3	-4	0.67	i	-34	2
O=C(NCC1CCCN(C2Cc3ccccc3C2)C1)c1cccs1 (centres undefined)	-2.1	1.5	-13	/	i	/	-7
CCCCn1c(N)c(N(CCOC)C(=O)COC(=O)COc2ccc(CC)cc2)c(=O)[nH]c1=O	-4.7	0.7	-1	0.66	i	-0.5	0
CCOC(=O)c1c(-c2ccccc2)oc2ccc(O)c(CN3CCN(C)CC3)c12	1.6	-0.7	12	0.62	i	5.0	15
CCCCNS(=O)(=O)c1ccc2nc(-c3cccs3)cc(C(=O)NCC(OC)OC)c2c1	-3.5	/	-2	0.67	/	i	/
CC(=O)c1ccc2c(c1)c1ccccc1n2CC(C)C	-2.9	3.2	-9	0.73	/	-6.3	-1
NNc1nc2c(-c3cccc(C(F)(F)F)c3)nnn2c2ccccc12	0.7	36*	-22	0.64	i	-5.8	-5
CC(C)C(=O)N1CCN(c2nc(-c3ccc(Cl)cc3)cs2)CC1	-0.2	-2.4	-5	0.7	/	8.3	-3
Cc1ccc(C(=O)/C=C/NNC(=O)c2ccccc2O)cc1	-4.2	-1.7	8	/	i	/	0
CC(C)CC(NC(=O)OC(C)(C)C)c1cn([C@@H](Cc2ccc(O)cc2)C(=O)N2CCN(C(=O)OC(C)(C)C)CC2)nn1 (some centres undefined)	-5.2	-1.6	-10	/	i	4.7	-2
COc1ccc(NC(=O)N2CCCC(c3nc(-c4ccc(OC)cc4)no3)C2)cc1 (centres undefined)	3.3	-0.6	-16	0.67	i	5.0	-4
O=c1c2cccnc2[nH]c(=S)n1CCCN1CCN(c2ccc(F)cc2)CC1	1.6	0.7	24	0.72	/	3.8	-6
Cc1cc(C(=O)O)cc(S(=O)(=O)N2CCOCC2)c1C	1.0	-0.4	/	0.71	/	3.5	2
Cc1ccc(-c2cc(C(=O)OCC(=O)NC3CC3)c3ccccc3n2)cc1	/	1.6	/	0.69	i	-94	-5
COc1ccc(N(CC(=O)NCCc2ccccc2)C(=O)c2csnn2)cc1	-7.6	-2.1	3	0.61	/	1.1	2
O=C(COC(=O)c1cccnc1Cl)NCCCc1ccccc1	-192	5.3	-4	0.65	i	0.1	-8
CC(C)(C)c1ccc(C(=O)O[C@H]2[C@H](Cc3ccccc3)NS(=O)(=O)[C@H]3C[C@@H]4C=C[C@]23O4)cc1	5.5	-4.4	3	0.78	i	2.3	4
CC(C)Sc1nnc(-c2ccc(S(=O)(=O)N3CCOCC3)cc2)n1C	-1.8	-1.8	/	0.71	i	0.1	-1
COc1ccc(CN2CCC(n3nccc3NC(=O)C3CC3)CC2)c(Cl)c1OC	-4.4	0.9	-2	0.71	i	1.1	2
Cc1ccc(C)c(OCc2cc(C(=O)N3C[C@@H](C)O[C@@H](C)C3)no2)c1	1.2	-1.1	1	0.64	i	0.8	3
Cc1ccccc1S(=O)(=O)Cc1ccc(C(=O)NCc2cccs2)o1	3.8	-4.1	12	0.71	/	-1.1	3
CCn1nc(NS(=O)(=O)c2ccccc2)c2cc3ccccc3nc21	-0.2	0.4	11	0.69	i	3.6	3
COc1cc(O)c(C(CCN2CCCC(C)C2)c2cc(OC)c(OC)c(OC)c2)c(OC)c1 (centres undefined)	-3.1	-1.2	18	0.72	i	4.6	-10
O=C(NCc1ccncc1)NC1CCCCC1	i	1.3	/	0.65	i	4.2	-4
CC(=O)Nc1ccc(S(=O)(=O)N2CCC(N3CCCC3)CC2)cc1	-1.4	-0.7	-3	0.67	i	-0.7	0
Cc1nnsc1C(=O)NC1CCCc2c1cnn2-c1ccc(F)cc1F (centres undefined)	-5.2	5.8	-5	0.73	i	4.9	16
Cc1ccsc1/C=N/NC(=O)Cc1ccc(Cl)cc1	1.5	-0.4	-2	/	i	/	-3
COc1ccc(/C=N/NC(=O)CCn2cnc(-c3ccccc3)c2-c2ccccc2)cc1	-1.8	1.0	-6	/	/	/	10
Cc1ccc(NC(=O)COC(=O)Cn2nc(C)c([N+](=O)[O-])c2C)c([N+](=O)[O-])c1	-1.6	2.9	-20	0.68	i	2.4	1
COC(=O)c1sc(C(F)(F)F)c(-c2ccccc2)c1S(=O)(=O)N(C)C	-3.8	0.8	-3	0.69	i	5.4	2
CCN(C[C@H]1N[C@@](C)(C(=O)OC)[C@H]2C(=O)N(C)C(=O)[C@@H]12)C(=O)Nc1ccc(C(F)(F)F)cc1	2.7	-2.6	/	0.67	i	1.0	12
O=S(=O)(NC1CCCC1)c1ccc(S(=O)(=O)N2CCN(c3ccccc3)CC2)cc1	-8.2	-2.3	-6	0.71	/	4.0	11
